Source: PubChem BioAssay
VACV mCherry inh = qHTS for Stage-Specific Inhibitors of Vaccinia Orthopoxvirus: mCherry Reporter Primary qHTS. Vaccinia virus mCherry reporter infection, fluorescence; about a quarter of the inactives have no number. 310,000 tested, 0.63% active. AID 720579, 2013. Potency, µM (top dose mostly 36.5 µM), without a hit: at the highest dose activity change, negative = inhibition, most hits filed as inhibitors; active = well fitted inhibition curve with a large enough effect; inconclusive = small, poorly fitted or top-dose-only effect; inactive = no such curve, though single readings can be large or run the other way; tested in A549 cells; further: nearly all actives have a fitted effect of over 35% in size; inactives centre near -10
VACV Venus inh = qHTS for Stage-Specific Inhibitors of Vaccinia Orthopoxvirus: Venus Reporter Primary qHTS; Vaccinia virus Venus reporter expression, fluorescence; Potency, µM (highest dose often 36.5 µM), for inactives: top-dose activity change, negative = inhibition, hits mostly inhibitors; 330,000 tested, 0.46% active; AID 720580, 2013; active means well fitted inhibition curve with a large enough effect; inconclusive means small, poorly fitted or top-dose-only effect; inactive means no such curve, though single readings can be large or run the other way; tested in A549 cells; further: nearly all actives have a fitted effect of over 30% in size; inactives centre near -10
* marks the source's active call; other numbers are inactive results; i = inactive; ? = inconclusive; . = no result given. On the % scale 0 is the no-effect control and ±100 the full control effect; potency means the concentration at half of the fitted maximal effect.

SMILES	VACV mCherry inh	VACV Venus inh
CC(=O)Nc1ccc(-n2c(C)c(C(C)=O)c(C(C)=O)c2C)cc1	.	-14%
CCCS(=O)(=O)c1c(S(=O)(=O)CCC)c2cnccn2c1C(=O)c1ccc(Cl)cc1	.	-14%
O=C(CP(=O)(c1ccccc1)c1ccccc1)N1CCCCC1	-9%	0%
COc1ccc(N(Cc2cc3ccc(C)cc3[nH]c2=O)C(=O)C2CCCO2)cc1 (configuration not stated)	-4%	-7%
Cc1ccc(NC(=O)c2cc(CN3CCOCC3)on2)cc1Cl	-4%	-10%
Cc1ccc(N(CC2CO2)S(=O)(=O)c2ccccc2[N+](=O)[O-])cc1 (configuration not stated)	-9%	-8%
COc1ccc(NC(=O)c2cc(C)nc3c2c(C)nn3-c2ccc(C)cc2)cc1OC	-10%	-19%
COc1ccc(C2Nc3ccccc3C(=O)N2c2ccc(F)cc2)cc1CSc1ccccn1 (configuration not stated)	-12%	-14%
CCC(C)NCCOc1ccc(Br)cc1 (configuration not stated)	i	-16%
COc1ccc(C(C(=O)NC(C)(C)C)N(C(=O)CNC(=O)c2cccs2)c2ccc(NC(C)=O)cc2)cc1OC (configuration not stated)	i	1%

A different layout for two compounds above:
Sequence of screens: VACV mCherry inh, VACV Venus inh
> CC(=O)Nc1ccc(-n2c(C)c(C(C)=O)c(C(C)=O)c2C)cc1
→ ., -14%
> CCCS(=O)(=O)c1c(S(=O)(=O)CCC)c2cnccn2c1C(=O)c1ccc(Cl)cc1
→ ., -14%

New compounds follow:
SMILES	VACV mCherry inh	VACV Venus inh
Cc1noc(C)c1CSc1nc2sc(C)c(C)c2c(=O)n1-c1ccccc1	-2%	-10%
COc1cccc(N(Cc2nnc3n2CCCCC3)C(=O)Nc2ccccc2F)c1	i	-3%
CCc1nn2c(=O)cc(COC(=O)c3ccccc3NC(=O)COc3ccccc3C)nc2s1	-13%	-9%
Cc1ccc(NC(=O)CN(C)C(=O)Cn2nnc(-c3ccccc3)n2)cc1	-1%	-3%
COc1cc(/C=N/N=C(\N)c2nonc2N)cc(OC)c1OC	-16%	-11%
Cc1ccnc(NC(=O)COc2c(C)cc(C)cc2[N+](=O)[O-])c1	i	-6%
CSc1nc2[nH]c3c(c2c2nncn12)CC(C)(C)OC3	.	-17%
CC1=C(C(=O)N(C(C)C)C(C)C)CC(CC(=O)NCCN2CCOCC2)C(=O)N1CCCN1CCCC1=O (configuration not stated)	15%	-6%
O=C(NCc1ccccc1)c1cc(-n2cnnc2)ccc1Cl	.	-4%
CN(C)C1(CNC(=O)C2CCN(S(=O)(=O)c3cc(Cl)ccc3Cl)CC2)CCCCC1	-10%	-21%

A draw from above in order of molecular weight, lowest first:
SMILES	VACV mCherry inh	VACV Venus inh
COc1cc(/C=N/N=C(\N)c2nonc2N)cc(OC)c1OC	-16%	-11%
Cc1ccc(NC(=O)CN(C)C(=O)Cn2nnc(-c3ccccc3)n2)cc1	-1%	-3%
Cc1noc(C)c1CSc1nc2sc(C)c(C)c2c(=O)n1-c1ccccc1	-2%	-10%
CN(C)C1(CNC(=O)C2CCN(S(=O)(=O)c3cc(Cl)ccc3Cl)CC2)CCCCC1	-10%	-21%
CC1=C(C(=O)N(C(C)C)C(C)C)CC(CC(=O)NCCN2CCOCC2)C(=O)N1CCCN1CCCC1=O (configuration not stated)	15%	-6%

(continued)
SMILES	VACV mCherry inh	VACV Venus inh
O=C(CCS(=O)(=O)c1ccc(Br)cc1)Nc1ccc(F)cc1F	-5%	-8%
CC(C(=O)c1c[nH]c2ccccc12)N1CCSCC1 (configuration not stated)	-7%	-2%
CCO[C@@H]1OC(C(=O)Nc2ccccc2)=C[C@H](C)[C@H]1CCCO	0%	-3%
Cc1cccc(C)c1NC(=O)CSc1nc(-c2cccs2)cc(C(F)(F)F)n1	2%	11%
CCn1c(Cc2c(C)[nH]c3ccccc23)nnc1SCC(N)=O	i	-11%
C/C(Cl)=C/Cn1c(=O)c2c(nc(Br)n2Cc2ccccc2)n(C)c1=O	.	-21%
CC(=O)Cc1nsc(NC(=O)c2ccc(-c3cc(C(F)(F)F)ccc3Cl)o2)n1	-8%	-28%
COc1ccc(C2NC(=O)N(C)C3=C2C(=O)N(c2ccccc2)C3)cc1 (configuration not stated)	2%	-2%
Cc1cccc(NC(=O)CCc2nc3sc4c(c3c(=O)[nH]2)CCCC4)n1	-20%	-13%
CCC1CN(C(=O)N2CCC(C(=O)NCc3ccc(C)o3)CC2)c2cc(C)ccc2O1 (configuration not stated)	1%	-4%
COc1ccc(CNC(=O)c2ccc(N3CCCC3)c(NC(=O)NCc3ccc(F)cc3)c2)cc1	-11%	-17%
Cc1c(Cl)cccc1NC(=O)Nc1c[nH]c(=O)[nH]c1=O	-15%	-5%
COc1cc(NC2c3ccccc3C(=O)N2Cc2ccc3c(c2)OCO3)cc(OC)c1OC (configuration not stated)	-23%	-1%
Cc1ccn2c(NC3CCCC3)c(-c3cccs3)nc2c1	?	-9%
COC(=O)c1[nH]c2ccccc2c1NC(=O)CN1CCC(C(N)=O)(N2CCCCC2)CC1	.	?
CCOc1ccccc1NC(=O)N1CCc2c(sc(C)c2CC)C1c1ccccc1 (configuration not stated)	-7%	-10%
CC(=O)c1cc(C#N)c(Oc2cccc(C(F)(F)F)c2)nc1C	.	-11%
COC(=O)C(NS(C)(=O)=O)(c1c(C)[nH]c2ccccc12)C(F)(F)F (configuration not stated)	-13%	2%
CCOC(=O)c1sc(NC(=O)c2cc3n(n2)C(C(F)(F)F)CC(c2cccs2)N3)c(C(=O)OCC)c1C (configuration not stated)	.	-19%
COc1ccc(C(=O)Nc2nccs2)cc1	-2%	-11%
O=C(N[C@@H](Cc1ccccc1)C(=O)OCc1ccccc1)c1nc[nH]c1C(=O)NC(c1ccccc1)c1ccccc1	?	?
O=C(Nc1ccc(Cl)c(Cl)c1)Nc1ccon1	-26%	-24%
CC(=O)OC1CC2C(C)(C)C(=O)[C@@H]3OC3[C@@]2(C)C2CC[C@]3(C)C(=CC(=O)OC3c3ccoc3)[C@]12C (some centres not stated)	7%	19%
COC(=O)c1ccccc1NC(=O)Cn1c(=O)cc(C)c2c(C)nn(-c3cccc(Cl)c3C)c21	-12%	2%
CCCCN(Cc1ccccc1)S(=O)(=O)c1ccc2c(c1)CC(C)N2C(=O)CC (configuration not stated)	-13%	-14%
O=C(C(Cc1ccccc1)n1cccc1)N1CCN(C2CCCCC2)CC1 (configuration not stated)	-2%	-8%
O=C(Nc1ccccc1)c1nnsc1S(=O)c1ccc(Cl)cc1 (configuration not stated)	.	?
Cn1nc(C(F)(F)F)c2cc(NC(=O)OCc3ccc(F)cc3)sc21	?	-29%
C(/CCc1ccccc1)=N\Nc1nc2ccccc2[nH]1	-10%	-26%
CCCOc1ccc(C(=O)CCC(=O)NNC(=O)Cn2nc(C)cc2C)cc1	-4%	1%

Some of the entries so far, with bars between the fields:
Molecule | VACV mCherry inh | VACV Venus inh
O=C(Nc1ccc(Cl)c(Cl)c1)Nc1ccon1 | -26% | -24%
CC(=O)OC1CC2C(C)(C)C(=O)[C@@H]3OC3[C@@]2(C)C2CC[C@]3(C)C(=CC(=O)OC3c3ccoc3)[C@]12C (some centres not stated) | 7% | 19%

The list continues:
SMILES	VACV mCherry inh	VACV Venus inh
O=C(Nc1ccccc1)c1ccccc1NC(=O)c1ccccc1[N+](=O)[O-]	i	-17%
COc1ccccc1OCCNc1cc(N2CCOCC2)ccc1[N+](=O)[O-]	-4%	-11%
Cc1onc(-c2ccccc2)c1C(=O)N1CCN(c2ccccc2F)CC1	-13%	-9%
COc1cccc(C(CC(=O)NCc2ccco2)NS(=O)(=O)c2ccc(C)cc2)c1OC (configuration not stated)	.	-17%
Clc1ccccc1-c1nccc(-n2ccnc2)n1	17%	0%
CCn1c2ccccc2c2cc(NC(=O)COc3ccccc3)ccc21	-26%	?
N=c1oc2ccccc2cc1-c1nc(-c2ccccc2)cs1	-11%	1%
CCC(=O)N1N=C2C3CCN(CC3)C2C1c1ccc(C)cc1 (configuration not stated)	i	-9%
CC(NC(=O)COc1ncnc2cc([N+](=O)[O-])ccc12)c1ccccc1 (configuration not stated)	i	-12%
COc1ccc([N+](=O)[O-])cc1-n1cnnn1	i	1%
CC(=O)Nc1ccc(NC(=O)c2ccccc2Br)cc1	4%	-7%
Cc1ccc(S(=O)(=O)c2nc(-c3cccs3)oc2SCc2ccc(F)cc2)cc1	-9%	-19%
CCC(=O)N1N=C(c2ccccc2)CC1c1ccccc1 (configuration not stated)	-20%	-13%
CC1(c2ccc(OC(F)F)cc2)NC(=O)N(CC(=O)Nc2ccc(F)cc2)C1=O (configuration not stated)	-9%	-5%
COC(=O)[C@@H](Cc1ccccc1)NC(=O)/C=C/[C@H]1O[C@@H](n2cnc3c(NC(=O)c4ccccc4)ncnc32)[C@H](O)[C@@H]1O	21%	3%
COC(=O)c1c(NC(=O)c2cc(=O)c3ccc(C)c(C)c3o2)sc2c1CCCC2	5%	1%
Cc1c(C(=O)NCc2ccc(F)cc2)sc2nc(-c3ccccc3)cn12	-21%	-19%
CC1CN(C(=O)COC(=O)CSc2ccc([N+](=O)[O-])cc2)CC(C)O1 (configuration not stated)	-4%	5%
CCOc1ccc(CCNC(=O)CCN2C(=O)COc3ccccc32)cc1OCC	-3%	-11%
CC(=O)Oc1ccc(N2C(=O)CCC2=O)cc1	-5%	-10%
C[C@H](CO)N1C[C@H](C)[C@@H](CN(C)C(=O)NC2CCCCC2)Oc2ccc(NS(=O)(=O)c3ccc(F)cc3)cc2C1=O	i	-3%
O=C(c1ccco1)N1CCN(C(=O)N2c3ccccc3Sc3ccccc32)CC1	?	?
Cc1ccc(C)c(N2CCN(C(=O)c3ccccc3Br)CC2)c1	-15%	-7%
O=[N+]([O-])c1cccc(S(=O)(=O)Nc2ccc3cn[nH]c3c2)c1	-4%	-17%
CCOC(=O)c1cc(-c2ccc(OC)cc2)n(CCC(=O)Nc2ccccc2OC)c1C	-1%	-11%
COc1cc(NC(=O)c2cc3nc(-c4ccccc4)cc(-c4ccccc4)n3n2)cc(OC)c1OC	-24%	-13%
COc1cccc(CNC(=O)C2CC(=O)N(C3CCCCC3)C2)c1 (configuration not stated)	0%	-16%
Cc1ccc(C(=O)NCC(=O)Nc2cccc(S(=O)(=O)NC3=NCCCCC3)c2)cc1C	-10%	5%
CCN(CC(=O)Nc1cccc(C#N)c1)CC(=O)Nc1cccc(OC)c1	-25%	-15%
COc1ccc(CN2CC34C=CC(O3)C(C(=O)O)C4C2=O)cc1 (configuration not stated)	-3%	-9%
NCC1CCCCC1CC(=O)O (configuration not stated)	i	-9%
O=C(NCc1ccc(Cl)cc1)NCc1noc2ccccc12	-9%	-2%
Cc1ccc(C(=O)NCC(=O)OCC(=O)NC(C)C2CC3CCC2C3)cc1 (configuration not stated)	-9%	-4%
O=C(NCc1ccc(F)cc1)c1cc2n(n1)C(C(F)(F)F)CC(C1CC1)N2 (configuration not stated)	?	-2%
CCCNC(=O)COc1ncnc2sccc12	12%	1%
COC(=O)CSc1nnc(Cc2ccccc2)n1-c1ccc(C)cc1	i	-11%
CCc1ccc(C2CC(=O)Nc3c2c(=O)n(C)c2ncnn32)cc1 (configuration not stated)	-14%	-14%
O=C(CSC1c2ccccc2-c2ccccc21)N/N=C/c1ccccc1	?	-27%
Fc1ccc(Nc2nc(Nc3ccc(F)cc3)nc(N3CCOCC3)n2)cc1	-13%	-12%
O=C1CCCC(=O)N1c1ccc(N2CCOCC2)c([N+](=O)[O-])c1	i	10%

In the list so far, eight have an aryl thioether with sulfur outside any ring.
SMILES	VACV mCherry inh	VACV Venus inh
COc1ccc(C2Nc3ccccc3C(=O)N2c2ccc(F)cc2)cc1CSc1ccccn1 (configuration not stated)	-12%	-14%
Cc1noc(C)c1CSc1nc2sc(C)c(C)c2c(=O)n1-c1ccccc1	-2%	-10%
CSc1nc2[nH]c3c(c2c2nncn12)CC(C)(C)OC3	.	-17%
Cc1cccc(C)c1NC(=O)CSc1nc(-c2cccs2)cc(C(F)(F)F)n1	2%	11%
CCn1c(Cc2c(C)[nH]c3ccccc23)nnc1SCC(N)=O	i	-11%
Cc1ccc(S(=O)(=O)c2nc(-c3cccs3)oc2SCc2ccc(F)cc2)cc1	-9%	-19%
CC1CN(C(=O)COC(=O)CSc2ccc([N+](=O)[O-])cc2)CC(C)O1 (configuration not stated)	-4%	5%
COC(=O)CSc1nnc(Cc2ccccc2)n1-c1ccc(C)cc1	i	-11%

Next part:
SMILES	VACV mCherry inh	VACV Venus inh
CC(C)CC(c1nnnn1Cc1ccco1)N1CCN(C2CCCC2)CC1 (configuration not stated)	-8%	-9%
COc1ccc(-c2ccc(C#N)c(SCC(=O)OCc3ccccc3)n2)cc1OC	.	-18%
CCC(C)(C)n1nnnc1C(c1cccs1)N1CCN(c2nc3ccccc3s2)CC1 (configuration not stated)	i	-7%
COc1cccc(CC(=O)Nc2nc(-c3cccnc3)cs2)c1	i	-24%
CC(C)(C)c1cc(NC(=O)COC(=O)c2ccccc2)n(-c2ccccc2)n1	-19%	-8%
CN(C)CCNC(=O)c1cccc(-c2cccc3nccn23)c1	i	-13%
O=C(COc1ccccc1C(=O)N/N=C\c1ccc(O)c(O)c1)N/N=C/c1ccc(O)c(O)c1	-11%	-7%
COCCOC(=O)CC1=NC(=O)CS1	.	-2%
CN(Cc1ccccc1)CC1C2CCC(C2)C1O (configuration not stated)	-5%	-17%
O=C(CC1(O)C(=O)Nc2ccccc21)c1cccc(Br)c1 (configuration not stated)	-27%	-7%
O=C(Nc1ccccc1)Nc1cccc(-c2cn3cccnc3n2)c1	-14%	2%
CCOc1ccccc1C(=O)Nc1cc(-c2ccc(C)cc2)no1	-9%	-14%
